Screening data as filed in PubChem BioAssay.
Rce1 inhib = inhibitors of yeast Ras-converting enzyme | yeast membranes, quenched prenylated peptide cleavage fluorescence | calls only | hit rate 0.27% among 290,000 | AID 2563;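 active = fall in fluorescence gain of 50% or more versus controls, with final raw signal at or below 3038400; inconclusive = same 50% fall but final raw signal above 3038400; inactive = fall in fluorescence gain under 50%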;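 also: plate controls were neutral control wells for no effect and wells lacking membranes for full effect; tested at 10 µM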
Target sequence (Q03530 whole entry, looked up): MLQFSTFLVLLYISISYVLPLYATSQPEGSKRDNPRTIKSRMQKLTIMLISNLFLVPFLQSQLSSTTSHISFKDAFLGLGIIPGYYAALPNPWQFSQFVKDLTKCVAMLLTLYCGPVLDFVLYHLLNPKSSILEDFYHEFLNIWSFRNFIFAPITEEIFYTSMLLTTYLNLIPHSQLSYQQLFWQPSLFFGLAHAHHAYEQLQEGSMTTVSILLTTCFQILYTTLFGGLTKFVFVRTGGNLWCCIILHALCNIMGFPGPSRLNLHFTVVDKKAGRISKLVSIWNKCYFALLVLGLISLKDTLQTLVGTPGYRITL
HIV Env fusion = inhibitors of HIV Env-mediated cell fusion; hit rate 1.1% among 360,000; HeLa-JRFL Env/CEM21 cell fusion, luciferase; AID 651610; inhibition, % at 12.3 µM;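 active = mean replicate inhibition score of at least 50 and every replicate individually at or above 50; inconclusive = only one of the two criteria met; inactive = mean below 50 and not all replicates reaching 50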;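 also: 0% = plate neutral controls and 100% = maraviroc near 300 nM; one replicate is shown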
CSC inhib = blocks cancer stem cells | hit rate 1.1% among 300,000 | AID 2717 | inhibition, % at 7.5 µM | cancer stem cell-like cells viability, luminescence;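 active = mean at 75% or more and at least half the replicates too; inconclusive = mean and replicates disagree; tested in HMLE shEcad cells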;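 also: 0% = median of negative and 100% = median of positive control wells; the first replicate is given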
UUG fidelity = yeast start codon fidelity modulation; S. cerevisiae UUG-firefly luciferase reporter, luminescence/redox ratio; activity score, % at 18.7 µM; hit rate 0.13% among 350,000;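 active = replicate mean at a twofold rise or more, about +100% in these data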;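 also: firefly luciferase made from a UUG start codon reports start codon fidelity; reporter light over untreated wells divided by growth signal over untreated wells; some hits fall short of that in this replicate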
PABP FP inh = blocks human PABP binding to poly(A) RNA; P11940; fluorescence polarization; inhibition, % at 35 µM; hit rate 1% among 290,000; AID 2014;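 active = 50% or more with normal probe brightness, or confirmed in later tests; inconclusive = above 50% with abnormal brightness, or retests that disagree; inactive = below 50% or failed in later tests; about a fifth of its hits are not listed in these tables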;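 also: calls also rest on retests at 20 µM and on dose response follow-up; controls were probe without protein and protein plus probe with vehicle; some compounds called inactive have numbers as strong as hits; many hits fall short of the cut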
MT1-MMP act inh = MT1-MMP (human) activation inhibition. P50281. HT1080 RFP-PRO-GFP cells, GFP/RFP ratio fluorescence, overnight; percent of plate control window, DMSO zero. GFP/RFP ratio change, % at 20 µM. hit rate 0.061% among 360,000;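 active = GFP/RFP ratio change of at least 30% with cell ATP level not reduced by more than half and red fluorescence within 50% of control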; also: strong numbers were not always called active
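Material: RFP-PRO-GFP reporter HT1080 cells. Dosing: single-point 20 µM compound, 1% DMSO. Controls: DMSO and RFP-L50D-GFP cell wells. Timing: cells overnight before dosing, compound overnight, 37 °C, 5% CO2. Measure: GFP/RFP fluorescence ratio.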
eIF4H FP inh = inhibitors of RNA binding by human eIF4H; Q15056; eIF4H fluorescence polarization binding assay; inhibition, % at 35 µM; hit rate 0.94% among 290,000;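 active = 50% or more with normal probe brightness, or confirmed in later tests; inconclusive = above 50% with abnormal brightness, or retests that disagree; inactive = below 50% or failed in later tests; about a fifth of its hits are not listed in these tables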;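 also: calls also rest on retests at 20 µM and on dose response follow-up; 0% = protein and probe with vehicle and 100% = probe without protein; strong numbers were not always called active; many hits fall short of the cut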
MT1-MMP act inh RFP = further read-out of MT1-MMP act inh, marked with its call; RFP signal change, %; measured here: RFP expression control read;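 0 = vehicle wells; hits needed this value within 50% of zero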
* marks the source's active call; other numbers are inactive results; i = inactive; ? = inconclusive; . = no result given.

SMILES	Rce1 inhib	HIV Env fusion	CSC inhib	UUG fidelity	PABP FP inh	MT1-MMP act inh	MT1-MMP act inh RFP	eIF4H FP inh
Nc1c(C(=O)N/N=C/c2cccnc2)oc2nc(-c3ccco3)cc(-c3ccco3)c12	i	5	-14	-29	?	-11	14	?
O=C(CS(=O)(=O)c1ccc(Br)cc1)N1CCOCC1	i	-12	0	-17	-1	2	1	-11
COc1ccc(C(=O)NCC(=O)OCC(=O)NC(=O)NC2CCCCC2)cc1OC	i	.	-5	-8	7	3	1	1
CC(C)Cn1c(=O)c2c(c3ccccc31)OC(C)C(=O)N2 (centres undefined)	i	.	.	.	-3	3	3	25
CC1=CC(C)(C)[N+](C)(C)c2ccccc21	i	4	-3	.	62*	-2	2	-8
COC(=O)c1ccc(CN2CCN(CCC(C)C)C(CCO)C2)cc1 (centres undefined)	.	-2	30	.	1	-4	0	4
O=CN(Cc1ccco1)C1(C(=O)NC2CCCCC2)CCCCC1	.	-32	-5	-7	-10	5	6	-1
O=c1[nH]c(-[n+]2ccc3ccccc3c2)c(/C=N/N=C(\[O-])c2ccccc2)s1	i	8	-6	-15	?	-12	5	?
Cn1c(SCC(=O)N/N=C/C=C\c2ccccc2[N+](=O)[O-])nc2ccccc21	i	0	-3	-11	0	-1	1	-3
CC1CCN(c2cc(N3CCC(C)CC3)c([N+](=O)[O-])cc2/C=C(\C#N)c2nn(-c3ccccc3)c(N)c2C#N)CC1	i	-9	9	-19	1	1	-2	-5
O=C(/C=C/c1c(Cl)cccc1Cl)n1cccn1	i	-8	-5	-16	4	7	5	6
CC(=O)NC1(C(F)(F)F)NC(=O)N(CC(C)C)C1=O (centres undefined)	i	.	3	-21	6	1	3	-1
COc1ccc(/C=N/OCC(=O)Nn2c(C)nc3ccccc3c2=O)cc1	i	-9	-5	0	8	-1	2	-6
COc1ccc(NC(=S)N2CCN(S(=O)(=O)c3ccc(OC)cc3)CC2)cc1	i	5	-11	-12	4	-1	0	-4
CC1CCN(C(=O)COC(=O)c2ccc3ccccc3n2)CC1	.	29	-6	8	.	6	5	.
COC(=O)[C@H](CC(C)C)NS(=O)(=O)N[C@@H](CC(C)C)C(=O)OC	.	-22	-6	-4	.	1	-1	.
CCn1cc(/C=N/NC(=O)c2ccc3c(c2)OCO3)cn1	i	-19	-4	.	0	1	5	6
CC1CC(C)CN(C(=O)CNS(=O)(=O)c2cccs2)C1 (centres undefined)	i	-3	13	-4	-3	-2	1	-9
O=C(NC(CC(=O)N1CCN(c2ccc([N+](=O)[O-])cc2)CC1)c1ccccc1)c1ccccc1Cl (centres undefined)	i	-6	2	.	-7	0	-2	0
CCN(CC)S(=O)(=O)c1ccc(S(=O)(=O)Nc2cc3c(cc2C(C)=O)OCO3)cc1	i	.	3	.	-8	-2	-1	-6
CCCCN(CCCNc1ncnc2nc[nH]c12)c1ccccc1	i	-9	0	-18	13	1	-12	-2
C=CCNc1nc2cc(-c3ccc(C(=O)N4CCOCC4)cc3)sc2c(=O)n1C	.	-38	.	-18	.	-3	-1	.
COc1cccc(CNCCN2CCOCC2)c1OC	i	19	-10	-28	-4	1	2	2
COc1cc(O)c2c(c1)OC(C)(C)CC2=O	i	-29	-17	-7	11	7	7	7
CCCn1c(SC(C)C(=O)NC2CCCC(C)C2C)n[nH]c1=O (centres undefined)	.	-6	.	-6	.	7	3	.
CCCn1nc2cc(C(=O)N(CC)c3ccc(OC)cc3)ccc2c1OCC	i	8	-4	-8	-5	4	4	-4
COc1ccc(-c2ccc(C(=O)Nc3cccc(N(C)C)c3)c3occc23)c(C)c1	.	-75	.	-12	.	2	-3	.
Cc1c(S(=O)(=O)N2CCOCC2)c(=O)n(C)c(=O)n1C	i	-4	-17	-19	9	5	6	-5
N/C(=N\OC(=O)c1cccc(Br)c1)c1ccc(Br)cc1	i	.	-18	3	2	3	2	-4
O=C1CC(C(=O)N2CCOCC2)C2(CCCC2)O1 (centres undefined)	i	-30	-4	-26	7	2	4	6
O=C(c1cccs1)N1CCN(c2nc3c(F)cc(F)cc3s2)CC1	i	.	-7	2	.	2	-2	.
COCCCNC(=O)C[C@H]1C[C@H](C(=O)N2CCCCC2)[C@@]2(CCc3ccccc3)c3[nH]c4cc(-c5ccco5)ccc4c3CCN2C1=O	.	29	.	-30	.	-11	-5	.
Cc1nnc(SC(C)C(=O)NC2CCCCC2)[nH]c1=O (centres undefined)	.	-3	.	-14	.	-1	1	.
Cc1cc(N/N=C/c2ccc(N(C)C)cc2)c2ccccc2n1	i	-15	-5	-19	9	-3	0	-13
COc1cc(NC(=S)NCCC(c2ccccc2)c2ccccc2)cc(OC)c1	i	28	.	.	9	2	-6	-4

A different layout for 2 compounds above:
| molecule | Rce1 inhib | HIV Env fusion | CSC inhib | UUG fidelity | PABP FP inh | MT1-MMP act inh | MT1-MMP act inh RFP | eIF4H FP inh |
| --- | --- | --- | --- | --- | --- | --- | --- | --- |
| COc1cccc(CNCCN2CCOCC2)c1OC | i | 19 | -10 | -28 | -4 | 1 | 2 | 2 |
| CCCCN(CCCNc1ncnc2nc[nH]c12)c1ccccc1 | i | -9 | 0 | -18 | 13 | 1 | -12 | -2 |

3 records picked at random from those above, as already listed:
SMILES	Rce1 inhib	HIV Env fusion	CSC inhib	UUG fidelity	PABP FP inh	MT1-MMP act inh	MT1-MMP act inh RFP	eIF4H FP inh
CC1CC(C)CN(C(=O)CNS(=O)(=O)c2cccs2)C1 (centres undefined)	i	-3	13	-4	-3	-2	1	-9
Cc1cc(N/N=C/c2ccc(N(C)C)cc2)c2ccccc2n1	i	-15	-5	-19	9	-3	0	-13
CCN(CC)S(=O)(=O)c1ccc(S(=O)(=O)Nc2cc3c(cc2C(C)=O)OCO3)cc1	i	.	3	.	-8	-2	-1	-6

Single values from the entries so far.
CSC inhib with `N/C(=N\OC(=O)c1cccc(Br)c1)c1ccc(Br)cc1` → -18
PABP FP inh with `COc1cccc(CNCCN2CCOCC2)c1OC` → -4
MT1-MMP act inh RFP with `O=C(c1cccs1)N1CCN(c2nc3c(F)cc(F)cc3s2)CC1` → -2

Profiles, quoted from the list. Values in the order: Rce1 inhib, HIV Env fusion, CSC inhib, UUG fidelity, PABP FP inh, MT1-MMP act inh, MT1-MMP act inh RFP, eIF4H FP inh
`COc1cc(O)c2c(c1)OC(C)(C)CC2=O` is listed as i, -29, -17, -7, 11, 7, 7, 7
`COc1cccc(CNCCN2CCOCC2)c1OC` is listed as i, 19, -10, -28, -4, 1, 2, 2
